Compound activity as filed in PubChem BioAssay.
MLL AF4-AF9 inh = MLL-AF4/AF9 protein interaction inhibition; AlphaScreen, biotin-AF4 peptide binding to FLAG-AF9; 350,000 tested, 0.47% active; inhibition, % at 10 µM;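 active = every replicate reaching a set inhibition limit, whatever the replicate mean, cut at about 25% in these data; inconclusive = mean inhibition reaches that limit but some replicates miss it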;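 note: 0% = plate neutral control median and 100% = total signal loss; the record names both 10 and 1 µM as test concentration; the first replicate is given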
Bfl-1 A1 inh = inhibitors of the anti-apoptotic protein A1, read as caspase activation. MEF A1-2A-BIM cells, Caspase-Glo 3/7 luminescence, 3 h; percent of clofoctol response, vehicle zero. caspase activation, % (concentration not given with the values). 330,000 tested, 0.066% active. AID 2462;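 active = over half of replicate activation scores above 10%, or exactly half above 10 with the replicate mean above 10; inconclusive = replicate mean below 10 yet half the replicates above 10; inactive = over half of replicates below 10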;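 note: wells of about 30 µL received 50 nL stock; many hits fall short of the cut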
Beta apoptosis = blocks beta cell apoptosis; AID 435005; INS-1E cytokine-induced death, ATP luminescence, 48 h; percent of positive-control rescue, neutral wells zero; 300,000 tested, 0.8% active; protection from apoptosis, % (no concentration beside the values);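 active = all replicates at 75% or more, or half of them and the mean; inconclusive = half reach 75% but not the mean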;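 note: 0% = cytokine-treated negative control wells and 100% = positive control rescue; higher means more ATP so stronger rescue from cytokine killing; wells of about 40 µL received 100 nL stock; the first replicate is given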
T cruzi repl = T. cruzi replication inhibition. T. cruzi beta-gal in NIH3T3, luminescence, 90 h. inhibition, % (test concentration not listed). 300,000 tested, 1.4% active. AID 1885;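 active = mean inhibition across valid replicates above about 55%, limit read from the data; inconclusive = mean below that limit but half or more replicates reach it; inactive = mean below it, under half of replicates reach it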;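 note: signal also drops with host cell toxicity which is not excluded here; 0% = plate median of DMSO wells and 100% = zero luminescence signal; higher percent means less beta-gal luminescence so fewer parasites; stock transfer was 50 nL into about 50 µL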
rRNA inh HTS = inhibits bacterial ribosomal RNA function over humanized ribosomes; E. coli WT GFP vs humanized-ribosome RFP mutants, fluorescence, 24 h; stronger effect = lower value; DMSO median 0, no signal -100; GFP signal change (wild-type ribosome), % (concentration not given with the values); 350,000 tested, 1.6% active;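 active = significant combined selectivity score with lowered wild-type GFP, culture density cut under 30%, mutant RFP and density less affected; inactive = any of these conditions unmet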; note: one replicate is shown; some compounds called inactive have numbers as strong as hits
FGF22 binding = binders of recombinant human FGF22 by thermal shift. calls only at 9.99 µM. SYPRO orange fluorescence; percent of sucrose octasulfate shift, DMSO zero. AID 651658. 340,000 tested, 1.5% active;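 active = melting point raised past a set limit in the mean and every replicate; inconclusive = no clear call; three in four hits are not shown here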
Target sequence (Q9HCT0 whole entry, looked up): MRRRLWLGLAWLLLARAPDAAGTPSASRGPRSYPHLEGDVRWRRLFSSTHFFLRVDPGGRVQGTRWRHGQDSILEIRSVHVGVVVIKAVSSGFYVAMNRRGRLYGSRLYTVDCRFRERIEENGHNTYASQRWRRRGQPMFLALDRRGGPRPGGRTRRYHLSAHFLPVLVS
Ecoli growth = inhibitors of Escherichia coli growth. AID 1053175. OD600 absorbance (concentration not given with the values). OD600, 23 h; stronger effect = lower value. 330,000 tested, 0.21% active;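 active = OD600 absorbance below the run mean of sample wells minus 3.6 SD, in any replicate, cut at about 0.56 in these data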;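 note: stock transfer was 300 nL into about 60 µL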
UCH37 DUB inh = inhibitors of human deubiquitinating enzyme UCH37. 330,000 tested, 0.33% active. inhibition, % (concentration not given with the values). purified proteasome/UCH37, Ub-AMC cleavage fluorescence. Q9Y5K5;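 active = mean of two replicates above 20%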;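 note: 0% = compound-free wells with enzyme and 100% = wells lacking proteasome; stock transfer was 100 nL into about 20 µL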
Target sequence (Q9Y5K5 whole entry, looked up): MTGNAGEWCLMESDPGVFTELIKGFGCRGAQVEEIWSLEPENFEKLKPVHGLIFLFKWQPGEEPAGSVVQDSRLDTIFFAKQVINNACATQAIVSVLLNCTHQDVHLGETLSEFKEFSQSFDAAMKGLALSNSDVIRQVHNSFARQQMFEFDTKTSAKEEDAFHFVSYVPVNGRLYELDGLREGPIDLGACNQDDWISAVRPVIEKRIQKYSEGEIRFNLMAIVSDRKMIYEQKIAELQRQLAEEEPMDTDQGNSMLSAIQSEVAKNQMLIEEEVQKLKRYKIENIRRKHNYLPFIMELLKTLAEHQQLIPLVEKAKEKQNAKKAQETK
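Material: human UCH37 enzyme supplied as purified proteasome complex / Amount: 0.15 nM proteasome as dispensed / Buffer or medium: pH 7.4 Tris-HCl (50 mM) with ovalbumin, ATP-MgCl2, DTT / Times: preincubation 30 min, reaction 25 min, room temperature / Technique: AMC fluorescence from Ub-AMC cleavage, excitation 355 nm, emission 460 nm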
rRNA inh HTS OD600 = recorded beside rRNA inh HTS, whose call it bears; OD600 change, %; measured here: OD600 growth;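 optical density of the mix in the first replicate; 0 = DMSO median and -100 = no signal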
rRNA inh HTS RFP = recorded beside rRNA inh HTS, whose call it bears; RFP signal change, %; measured here: RFP humanized mutant strains;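 first replicate; 0 = DMSO median and -100 = no signal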
Starred values were filed as active, the others as inactive; i = inactive; ? = inconclusive; . = not tested or not shown. A portion of the library; rates above refer to the full screens.

SMILES	MLL AF4-AF9 inh	Bfl-1 A1 inh	Beta apoptosis	T cruzi repl	rRNA inh HTS	rRNA inh HTS OD600	rRNA inh HTS RFP	FGF22 binding	Ecoli growth	UCH37 DUB inh
N#C/C(=C\c1ccc(O)c(O)c1)C(=O)NCCc1ccccc1	-7.9	0.2	-3	.	-47	-71	-7.6	i	.	5.8
C/C(=N/NC(=O)CNC(=O)COc1cccc(C)c1)c1ccco1	-7.3	-0.2	3	-7	5	-3	-1.4	i	.	.
O=C(NCc1nnc(SCC(=O)N2CCN(c3ccccc3)CC2)o1)c1c(F)cccc1F	5.5	?	-4	8	6	8	3.9	i	0.63	1.2
COc1ccccc1N1CCN(S(=O)(=O)c2ccc(-c3cnc(C4CC4)o3)cc2)CC1	1.7	-0.9	5	8	-5	-13	2.1	i	0.71	1.2
Cc1ccc(-c2csc(NCCn3c(-c4ccncc4)nc4cc(C(F)(F)F)ccc43)n2)cc1	.	2.1	1	.	10	18	12	i	0.68	-1.2
COC(=O)C1=C(C)C(c2ccc(OC)cc2)NC(=O)N1 (centres undefined)	-1.1	-0.8	3	-10	-1	0	-1.8	i	0.73	-0.1
O=C(CCS(=O)(=O)c1cccc2nsnc12)N1CCN(c2ccccc2F)CC1	.	-0.6	-2	0	.	.	.	.	0.69	4.4
Cc1c(C)c2c(OCC(=O)NCC(C)C)cc3c(c2oc1=O)CCC(C)(C)O3	-1.5	-0.3	6	17	6	18	0.9	i	0.66	-400
COc1ccc(NC(=O)c2ccccc2[N+](=O)[O-])cc1OC	-2.2	-0.9	-10	-1	8	2	-0.7	i	0.68	2.7
COc1ccc(OCCCC(=O)Nc2cccc(S(=O)(=O)N3CCCCCC3)c2)cc1	1.4	-0.6	-3	.	0	-22	1.7	i	0.7	0.8
O=C(CCn1ccc2cc(S(=O)(=O)N3CCCC3)ccc21)NCc1ccccc1	6.1	0.1	0	12	-5	-6	1.3	i	0.67	4.7
CCOC(=O)c1ccc(NC(=O)C2CCCN(c3cnccn3)C2)cc1 (centres undefined)	-0.2	0.1	2	40	-16	-14	-1.4	i	0.68	-13
O=C1CC[C@@H](CN(Cc2ccccn2)Cc2nc(-c3ccc(C(F)(F)F)cc3)no2)N1	-3.9	-0.1	-2	-6	10	8	-4.0	i	0.73	6.6
N#Cc1ccsc1NC(=O)c1cnccn1	.	-1.3	2	-8	.	.	.	.	0.69	7.3
COc1cc(OC)cc(C(=O)O/N=C(\N)c2ccccn2)c1	0.3	-1.0	-5	-4	.	.	.	i	0.69	-1.2
Cc1ccc(C(C)C)c(OCC(=O)N/N=C/c2ccc(S(=O)(=O)O)o2)c1	.	0.5	3	-15	-1	-8	1.0	i	.	.
COC(=O)c1ccc(C)c(NC(=O)c2nn(C)c(=O)c3ccccc23)c1	.	0.1	-8	5	.	.	.	.	0.74	2.2
CCn1c2ccccc2c2nnc(SCC(=O)NC3CCS(=O)(=O)C3)nc21 (centres undefined)	.	-0.1	-2	9	.	.	.	.	0.7	12
COC(=O)CCNC(=O)CCc1ccc(S(=O)(=O)N2CCCCCC2)cc1	-0.8	0.2	-5	.	4	5	-3.2	i	0.7	4.0
C/C(=N\NC(=O)Cn1nc(C)c([N+](=O)[O-])c1C)c1ccc(O)cc1	0.8	-0.1	-2	-15	10	-2	-3.1	i	.	.
Cc1cccc(Nc2nc(C)cc(C)n2)c1	3.7	0.5	-8	-5	14	7	3.8	i	0.69	1.1
COC(=O)CSc1nc2ccccc2nc1SCC(=O)OC	.	0.5	-6	0	.	.	.	.	0.69	2.4
CNCC(=O)N(CC(C)C)c1c(N)n(CC(C)C)c(=O)[nH]c1=O	3.1	0.3	-8	-5	4	-2	-1.4	i	0.68	-0.3
COC(C(=O)Nc1ccc(S(=O)(=O)Nc2ccc(F)cc2)cc1)c1ccccc1 (centres undefined)	.	-0.2	1	-7	.	.	.	.	0.68	-1.4
CCN1CCN(C(=O)C2c3cc(OC)c(OC)cc3C(=O)N3CCc4ccccc4C23)CC1 (centres undefined)	.	2.0	-7	9	.	.	.	.	0.67	1.6
Cc1cccc(OCC(=O)NCC(=O)N/N=C/c2cc(Br)ccc2OCc2ccccc2)c1	0.9	-0.4	-3	23	9	3	1.5	i	.	.
CCn1c(C)c(C(=O)O)c2cc(OC)c3ccccc3c21	0.3	1.2	-3	-14	2	-25	-1.5	i	0.66	-76
Cc1cc(-c2csc(N)n2)c(C)n1CCC(C)C	.	0.3	6	-3	.	.	.	.	0.72	-1.0
COCCNC(=O)Cn1cc(/C=C(\C#N)C(=O)NC2CC2)c2ccccc21	0.2	0.5	-1	-3	8	17	-0.7	i	0.68	3.7
COC(=O)c1cc(Br)c(=O)n(-c2ccccc2OC)c1	.	-0.3	-6	-9	.	.	.	.	0.71	-1.1
COc1ccc(N2Cc3ccccc3C2=NC(=O)c2ccc(C)cc2)cc1OC	4.7	1.4	-7	-1	3	2	3.2	i	0.67	3.6
Cc1cc(C)cc(C(=O)NCc2ccc3c(c2)OCO3)c1	-0.9	0.0	-3	-5	6	1	0.3	i	0.7	3.3
O=C(O)/C=C/C(=O)Nc1nc(-c2ccc3ccccc3c2)cs1	.	1.2	2	7	-34*	3.8*	0.3*	i	0.63	5.7
Cc1ccc(NC(=O)c2cnccn2)c(C)c1	-20	-0.3	3	3	4	5	-2.5	i	0.7	4.3
O=C(Nc1cccc(-c2nc3ccccc3s2)c1)c1cc(-n2cnnc2)ccc1Cl	.	-2.1	-11	0	.	.	.	.	0.64	3.8
Cc1c(/C=N/NC(=O)c2cc(C(C)(C)C)[nH]n2)c2ccccc2n1C	-0.8	-0.7	-12	20	8	7	-1.7	i	.	.
CN1C(=S)N2CCCN2C1c1ccccc1 (centres undefined)	-0.4	0.2	-2	3	8	1	-3.8	i	0.68	1.3
CCc1ccc(NC(=O)[C@H](C)NC(=O)C2CCN(C(=O)[C@@H](N)Cc3ccccc3)CC2)cc1	.	-0.1	-1	5	.	.	.	.	0.69	-1.2
Cc1ccc(Sc2ncccc2O)cc1	0.8	-0.1	-8	-4	0	4	0.9	i	0.68	3.9
Nn1c(SCC(=O)N2CCOCC2)nnc1-c1ccccc1Cl	.	1.3	-5	-7	.	.	.	.	0.71	3.2
COc1ccc(-n2nc(C#N)c(Cl)cc2=O)cc1	-2.5	.	.	.	-43*	-27*	-3.1*	.	0.67	3.8
CCCOc1ccc(-c2nc(SCc3ccccc3)[nH]c(=O)c2C#N)cc1OC	-1.2	-0.6	1	56*	3	-8	5.1	i	0.69	-36
Cc1ccc2ncnc(NCCCN3CCOCC3)c2c1	.	0.7	-6	-2	.	.	.	.	0.67	-0.5
Cc1cccc2cc(CN(Cc3ccco3)S(=O)(=O)c3ccc4c(c3)OCCO4)c(=O)[nH]c12	.	0.9	-2	14	.	.	.	.	0.73	-2.5
Cc1ccc(C(=O)Nn2c(C)nc3ccccc3c2=O)cc1C	-1.3	-1.6	0	3	6	10	2.3	i	0.66	5.5
C/C(=N\Nc1cccc([N+](=O)[O-])c1)c1cc(F)ccc1O	4.8	0.3	10	7	0	-16	-8.2	.	.	.

Some of these compounds in order of length of the SMILES, rising:
SMILES	MLL AF4-AF9 inh	Bfl-1 A1 inh	Beta apoptosis	T cruzi repl	rRNA inh HTS	rRNA inh HTS OD600	rRNA inh HTS RFP	FGF22 binding	Ecoli growth	UCH37 DUB inh
Cc1ccc(Sc2ncccc2O)cc1	0.8	-0.1	-8	-4	0	4	0.9	i	0.68	3.9
CN1C(=S)N2CCCN2C1c1ccccc1 (centres undefined)	-0.4	0.2	-2	3	8	1	-3.8	i	0.68	1.3
Cc1ccc(NC(=O)c2cnccn2)c(C)c1	-20	-0.3	3	3	4	5	-2.5	i	0.7	4.3
Cc1ccc2ncnc(NCCCN3CCOCC3)c2c1	.	0.7	-6	-2	.	.	.	.	0.67	-0.5
Cc1cc(-c2csc(N)n2)c(C)n1CCC(C)C	.	0.3	6	-3	.	.	.	.	0.72	-1.0
COc1ccc(-n2nc(C#N)c(Cl)cc2=O)cc1	-2.5	.	.	.	-43*	-27*	-3.1*	.	0.67	3.8
Cc1cc(C)cc(C(=O)NCc2ccc3c(c2)OCO3)c1	-0.9	0.0	-3	-5	6	1	0.3	i	0.7	3.3
Cc1ccc(C(=O)Nn2c(C)nc3ccccc3c2=O)cc1C	-1.3	-1.6	0	3	6	10	2.3	i	0.66	5.5
O=C(O)/C=C/C(=O)Nc1nc(-c2ccc3ccccc3c2)cs1	.	1.2	2	7	-34*	3.8*	0.3*	i	0.63	5.7
C/C(=N\Nc1cccc([N+](=O)[O-])c1)c1cc(F)ccc1O	4.8	0.3	10	7	0	-16	-8.2	.	.	.
COc1ccc(N2Cc3ccccc3C2=NC(=O)c2ccc(C)cc2)cc1OC	4.7	1.4	-7	-1	3	2	3.2	i	0.67	3.6
CCCOc1ccc(-c2nc(SCc3ccccc3)[nH]c(=O)c2C#N)cc1OC	-1.2	-0.6	1	56*	3	-8	5.1	i	0.69	-36
Cc1c(/C=N/NC(=O)c2cc(C(C)(C)C)[nH]n2)c2ccccc2n1C	-0.8	-0.7	-12	20	8	7	-1.7	i	.	.
O=C(Nc1cccc(-c2nc3ccccc3s2)c1)c1cc(-n2cnnc2)ccc1Cl	.	-2.1	-11	0	.	.	.	.	0.64	3.8
Cc1cccc2cc(CN(Cc3ccco3)S(=O)(=O)c3ccc4c(c3)OCCO4)c(=O)[nH]c12	.	0.9	-2	14	.	.	.	.	0.73	-2.5
CCc1ccc(NC(=O)[C@H](C)NC(=O)C2CCN(C(=O)[C@@H](N)Cc3ccccc3)CC2)cc1	.	-0.1	-1	5	.	.	.	.	0.69	-1.2
